NPYLR7 ag: activates Aedes aegypti NPYLR7 receptor; HEK293T NPYLR7/Galpha15, GCaMP6s calcium fluorescence; activation, % at 10 µM; 0.15% of 270,000 active; AID 1259423; in the data active = activation above about 40%;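 also: 0% = vehicle and 100% = reference agonist at the receptor; some compounds past the cut are filed as inactive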
NPYLR7 ag max-min: second read-out of NPYLR7 ag, no call of its own (marks repeat the call); activation, %; measured here: Max-Min RFU normalised activation; some inactives read as strong as hits;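 span of the calcium signal over five minutes; 0% = vehicle and 100% = native peptide agonist; compound fluorescence can raise it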
* = called active by the depositor; & = joins results of further samples. A portion of the library; count on the stated rates, not on these rows.

mol,NPYLR7 ag,NPYLR7 ag max-min
COc1ccc(C2(C(=O)NCC3(O)CCNC3)CCCC2)cc1OC (stereo not drawn),4,3
O=C(Nc1nnc(C2CC2)s1)c1cc2c(s1)CCCCC2,0,-2
COc1ccc(C(C2Sc3nc(C)nn3C2=O)N2CCC(O)CC2)cc1OC (stereo not drawn),10,6
O=C(C1CCN(C2CCN(Cc3cccc4nccnc34)CC2)CC1)N1CCCC1,7,11
COc1cc(Nc2c(C#N)cnc3c(OC)cccc23)cc(OC)c1OC,21,11
CN(C)CCNc1nc(-c2ccc3c(c2)OCO3)c2c(N)n(-c3ccc(Cl)cc3)nc2n1,6,5
CCc1nnc(NC(=O)CN(CC)CC)s1,-4,-3
O=C(Nc1ccc(I)cc1)N[C@@H](Cc1ccccc1)C(=O)N1CCC(C(=O)N2CCOCC2)CC1,-4,-2
COc1cc(Nc2cc3c(cn2)cc(-c2cccnc2)n3C)cc(C(F)(F)F)c1,11,20
CC(C)CCn1c(N2CCN(c3ccccc3)CC2)nc2c1c(=O)[nH]c(=O)n2C,1,-1
Cc1ccc(C2c3ccsc3CCN2CC(=O)N2CCN(C(=O)CSc3ccccc3)C(C)C2)cc1 (stereo not drawn),5,-1
Cc1ccc(-c2cc3c(=O)n(Cc4nc(-c5ccc(Cl)cc5)oc4C)ccn3n2)cc1C,0,-4
N#Cc1ccccc1NC(=O)CNc1cc(F)cc(F)c1,6,7
CC(C#N)c1cccc(C(=O)N2CCN(Cc3ccc(-c4noc(-c5ccco5)n4)cc3)CC2)c1 (stereo not drawn),-5,-10
Nc1nc(N2CCOC(c3ccc(Cl)c(Cl)c3)C2)c2[nH]cnc2n1 (stereo not drawn),4,3
Clc1ccc(N2CCCC2)c(NCc2nnnn2C2CC2)c1,1,2
COC(=O)C1=C(C)NC(C)=C(C(=O)OC)C1c1cc(OC)ccc1OC,-9,-15
O=C(NCCCN1CCOCC1)c1c(O)nc2sccn2c1=O,-1,6
CC(Oc1cccc2cccnc12)C(=O)NC(=O)NC(C)(C)C (stereo not drawn),7,3
Oc1cccc2ccc(/C=C/c3cc(Cl)c4c(c3)OCO4)nc12,9,5
CCc1cccc2c(C(CC(=O)NC(C)c3ccccc3)c3ccccc3C(F)(F)F)c[nH]c12 (stereo not drawn),1,1
C=CCn1c(C(C)NC(=O)c2ccccc2)nc2ccccc21 (stereo not drawn),5,8
N#Cc1ccc(Oc2cc(-n3cccn3)ncn2)cc1,4,1
CCn1c2ccccc2c2cc(CNc3nn[nH]n3)ccc21,-11,-17

Profiles from above:
Shown for CCc1cccc2c(C(CC(=O)NC(C)c3ccccc3)c3ccccc3C(F)(F)F)c[nH]c12 (stereo not drawn) → NPYLR7 ag: 1; NPYLR7 ag max-min: 1
Shown for O=C(NCCCN1CCOCC1)c1c(O)nc2sccn2c1=O → NPYLR7 ag: -1; NPYLR7 ag max-min: 6

Looked up above.
Entry for `CC(Oc1cccc2cccnc12)C(=O)NC(=O)NC(C)(C)C` (stereo not drawn) in NPYLR7 ag: 7
Entry for `Oc1cccc2ccc(/C=C/c3cc(Cl)c4c(c3)OCO4)nc12` in NPYLR7 ag: 9
Entry for `O=C(NCCCN1CCOCC1)c1c(O)nc2sccn2c1=O` in NPYLR7 ag: -1
Entry for `COC(=O)C1=C(C)NC(C)=C(C(=O)OC)C1c1cc(OC)ccc1OC` in NPYLR7 ag: -9
Entry for `CCn1c2ccccc2c2cc(CNc3nn[nH]n3)ccc21` in NPYLR7 ag max-min: -17
Entry for `CCc1cccc2c(C(CC(=O)NC(C)c3ccccc3)c3ccccc3C(F)(F)F)c[nH]c12` (stereo not drawn) in NPYLR7 ag: 1
Entry for `C=CCn1c(C(C)NC(=O)c2ccccc2)nc2ccccc21` (stereo not drawn) in NPYLR7 ag max-min: 8

Other structures follow:
mol,NPYLR7 ag,NPYLR7 ag max-min
CN(C(=O)c1ccc(-c2nnn(C)n2)cc1)C1Cc2ccccc2C1,0,1
Cn1c(=O)n(CC(N)=O)c(=O)c2c1nc1n2CCCN1c1ccc(Br)cc1,1,-1
C=CCCC(O)(CCC=C)c1ccc(CN(CCN2CCOCC2)Cc2ccsc2)o1,5,3
CC(C)(C)c1nn(-c2cc(F)ccc2F)c(N)c1NC(=O)NCCN1CCOCC1,5,9
Cc1ccccc1CSc1nc(=O)n(Cc2ccncc2)c2c1CCC2,0,-2
O=S(=O)(c1cc(F)c(F)cc1Cl)N1CCC(c2cn(Cc3cccc(F)c3)c3ccccc23)CC1,3,-4
COc1ccc(S(=O)(=O)NCCCN2CCOCC2)cc1N1CCN(C(=O)c2cc(Cl)cc(Cl)c2)CC1,18,12
CCCCn1c(=O)c2c(nc3n(CCC)c(C)cn23)n(C)c1=O,-11,-10
CC(Nc1ccccc1Oc1ccccc1)C(=O)N1CC(=O)Nc2ccccc21 (stereo not drawn),1,0
CN(C(=O)C1CCCCC1)C(c1ccccc1)c1ccccc1,6,4
CCCC(=O)NCC(=O)N1CCN(C(C)c2ccccc2F)CC1 (stereo not drawn),6,4
CCOC(=O)CCC(=O)N1CCN(c2cc(Oc3cccc(C)c3)ncn2)CC1C (stereo not drawn),-8,-3
CC(C)c1cc(CNC(=O)C(C)N2C(=O)c3cccc4cccc2c34)on1 (stereo not drawn),3,2
O=C(CN1CCn2nc(C(=O)O)cc2C1=O)c1ccccc1,-9,0
CCc1ccc(C(C2Sc3nc(CC)nn3C2=O)N2CCCC2)cc1 (stereo not drawn),9,8
Cc1nc(C)c(C(=O)NC2CC(=O)N(C3CCCCCC3)C2)s1 (stereo not drawn),-1,-2
Cn1c(SCC(=O)N2CCCC2)nnc1-c1ccco1,2,9
O=C1C2CC=C(Cl)CC2C(=O)N1CCN1CCN(CCN2C(=O)C3CC=C(Cl)CC3C2=O)CC1 (stereo not drawn),10,5
CC(C)COc1cccc(C(=O)Nc2ccc(N3CCOCC3)cc2N2CCOCC2)c1,7,4
CN(Cc1ccc(Cl)s1)c1ccc(S(=O)(=O)NC2CC2)cn1,7,5
COc1ccc(Nc2nc(-c3ccccc3)c3cc(C)ccc3n2)cc1,14,13
CC(C)c1nnc(CNc2ccc(C#N)cc2)o1,-3,-5
Cc1cccc(NC(=O)N2CCC3(CC2)C(=O)N(CC(=O)N2CCCC2)CN3c2ccccc2)c1C,-5,3
COCCCN(CC(=O)N1CCc2sccc2C1c1ccc(Cl)cc1)S(=O)(=O)c1ccc(F)cc1 (stereo not drawn),-3,7

(cont.)
The line under a structure holds: NPYLR7 ag | NPYLR7 ag max-min
COc1ccc(C(C)C)cc1S(=O)(=O)n1cnc(C)c1
→ -2 | 5
Cc1noc(-c2cccnc2)c1C(=O)NCc1cccc(Cl)c1
→ 14 | 14
Cn1ccc2c(-c3cccc(N4CCNCC4)n3)ccnc21
→ 21 | 4
CCc1cnc(C)nc1N1CCc2[nH]nc(-c3ccc(F)c(F)c3)c2C1
→ 5 | 1
CC(=O)c1ccc(-c2nnc(CCC(=O)N3CCN(c4ccc(C)cc4)CC3C)o2)s1 (stereo not drawn)
→ 5 | -7
CC(C)(C)c1ccc(-n2ncc(C(=O)NCc3ccccc3C(F)(F)F)c2N)cc1
→ 1 | 17
Cc1cccc(-c2nnn3c2nc(NCc2ccc(F)cc2)c2ccccc23)c1
→ -6 | -8
Cc1ccc(-n2nnnc2SCC(=O)NC(C)(C)C)cc1C
→ 1 | -2
O=C(CSc1nc2c(c(=O)n1-c1ccccc1)SCC2)NC1CCCCC1
→ -1 | -4
CN1C(=O)N(Cc2cccnc2)C(=O)C12CCN(Cc1cn(C)c3ccccc13)CC2
→ 19 | 7
CC(=O)c1cnn(-c2cc(Oc3ccccc3F)nc(C)n2)c1C
→ 4 | 8
C#CCNC(=O)c1ccc(NCC2CC2)nc1
→ -1 | -2
COc1ccc(-c2cc3c(=O)n(Cc4nc(-c5ccccc5)oc4C)ccn3n2)cc1
→ 12 | 10
CCCCc1nc(N2CCCN(C(=O)c3ccc(Cl)cc3Cl)CC2)c2c(-c3ccc4ccccc4c3)noc2n1
→ 17 | 9
Fc1cccc(CN2CCN(Cc3ccc4nonc4c3)CC2)c1
→ -7 | -11
Cc1ccc(CNC(=O)c2sc3nc(CN4CCCCC4)[nH]c(=O)c3c2C)cc1
→ 6 | 2
CC1C(=O)N(c2ccc(Oc3ccccc3)cc2)CCN1C(=O)CCc1ccccc1 (stereo not drawn)
→ 1 | 6
Cc1nn(C(C)C)c(C)c1NCc1ccc(N2CCOCC2)cc1
→ 1 | 1
CCC(C(=O)N(Cc1nc(C(=O)OC)cs1)C1CC1)c1ccccc1 (stereo not drawn)
→ -13 | -19
CCCc1c(C(=O)NC2CC2)cnn1C
→ -2 | 9
Cc1ccc(/C=C/S(=O)(=O)Nc2ccc(OCCO)cc2C(F)(F)F)cc1
→ 3 | 3
CN1C(C(=O)N2CCN(C(=O)c3ccco3)CC2)=CC(c2ccco2)=NS1(=O)=O
→ 8 | 2
Cc1ccc(NS(=O)(=O)c2ccc(S(C)(=O)=O)c(F)c2)nc1
→ -4 | -4
CCOc1cccc(-c2nc3ccccc3c(=O)n2Cc2ccccc2)c1
→ 4 | 1
O=c1oc2ccc(Br)cc2cc1-c1ccc(S(=O)(=O)N2CCOCC2)s1
→ 19 | 12
COc1cc(NC(=O)Cc2cccc(F)c2)cc(OC)c1
→ -2 | -5
COc1cccc(C(=O)N(Cc2ccc(OCc3nc(CO)cs3)cc2)C2CC2)c1
→ 11 | 8
COc1ccccc1OC1CCN(S(=O)(=O)NCc2ccccc2)CC1
→ -1 | -2
COc1ccc(C2C(=C(O)c3ccccc3)C(=O)C(=O)N2CCCN(C)C)cc1 (stereo not drawn)
→ 6 | 7
CCCc1c(C(=O)Nc2ccc(-c3cccc(-c4ccc5c(c4)OCCO5)n3)cc2)cnn1-c1ccccc1
→ 3 | 0
COCc1nc(-c2cccc(CN3CCN(C(=O)c4cnc(C)cn4)CC3)c2)no1
→ 6 | 13
Cc1cccc2c(-c3ccc(O)c(F)c3)c[nH]c12
→ 13 | 6
COc1ccc(NC(=O)C2CCN(C(=O)[C@@H]3CCCN3C(=O)Nc3ccccc3Br)CC2)cc1
→ -3 | 1
COc1ccccc1N1CCN(C(=O)c2ccncc2)CC1
→ 0 | -1
Cc1cc(C(=O)N2CCCC2)nc2cc(-c3ccccc3)nn12
→ 10 | 14
CCC/C=C/c1cc(N2CCOCC2)nc(N)n1
→ 4 | 3
COc1cc(OC)cc(C(=O)N(Cc2nc3cc(Cl)ccc3o2)C2CC2)c1
→ 2 | 1
CC(Sc1nc(=O)n2ccccc2n1)c1ccccc1 (stereo not drawn)
→ 3 | 6
CC(NCc1csc(-c2cccs2)n1)C(=O)NC1CCCC1 (stereo not drawn)
→ -5 | -8
CC(Sc1nnc(-c2ccc(F)cc2)n1C)C(=O)N1CCCC1 (stereo not drawn)
→ 13 | 8
COc1ccc(N2CC(NC(=O)NCCn3ccc4ccccc43)CC2=O)cc1 (stereo not drawn)
→ 3 | 0
COCCNC(=O)CCC1CCN(C(=O)C2=CCCC2)CC1
→ 12&8 | 8&1
O=C1C(=Cc2ccc3c(c2)OCCO3)CCC1=Cc1ccc2c(c1)OCCO2
→ 8 | 13
CNC(=O)CSc1nnc2[nH]c(=O)cc(C)n12
→ -24 | -15
Clc1ccccc1-c1cn(C2CCN(Cc3nccs3)CC2)nn1
→ -8 | -11
C/C=C/COC(=O)C1=C(C)NC(=O)NC1c1cccc2ccccc12 (stereo not drawn)
→ -1 | -6
CCOC(=O)C1CCCCN1CC(=O)N1N=C(c2cccc(OC)c2)CC1c1ccccc1 (stereo not drawn)
→ 8 | 7
CCc1nc2ccc(C(=O)NCCN3CCOCC3)cn2c1N(CC)CCOC
→ -3 | -4
Cc1ccccc1C1=NN(S(C)(=O)=O)C(c2ccccc2O)C1 (stereo not drawn)
→ 3 | 3
COc1ccc(/C=C2N=C(/C=C/c3cccc(Cl)c3Cl)OC\2=O)c(OC)c1OC
→ -4 | -7
OCCOc1cccc(CN2C[C@H]3C[C@H](O)[C@@H](O)C[C@H]3C2)c1
→ 1 | 6
Oc1cccc(-c2cc(C3CCN(Cc4ccsc4)C3)ccn2)c1 (stereo not drawn)
→ -1 | -7
CCN(CC)S(=O)(=O)c1cc(C(=O)Nc2ccc(C)cc2)ccc1C
→ -6 | -10
CC(NS(=O)(=O)c1cccnc1Cl)c1ccc(F)c(F)c1 (stereo not drawn)
→ 7 | 3
S=c1[nH]nc(COc2ccccc2)n1-c1cccc2ccccc12
→ 0 | -4
Cc1nsc(N2CCC(CN(C)C(=O)OC(C)(C)C)CC2)n1
→ -2 | -2
Cc1c(C)n2c3c(=O)n(CCN4CCCCC4)c(=O)n(C)c3nc2n1CCc1ccccc1
→ 5 | 4
CN(C)c1ncc(CN2CCN(S(=O)(=O)c3ccccc3)CC2)s1
→ -6 | -8
CC1CCN(Cc2csc(NC(=O)COc3cc(Cl)ccc3Cl)n2)CC1
→ -8 | -5
COc1cc(C=NNC(=O)c2cc(C3CC3)[nH]n2)ccc1O
→ 7 | 8

Next records.
The line under a structure holds: NPYLR7 ag | NPYLR7 ag max-min
COc1ccc(C(=O)NCC(C)c2ccccc2)cn1 (stereo not drawn)
→ 2 | 2
O=C(c1cc2ccccc2[nH]1)N1CCC(S(=O)(=O)c2ccccc2)CC1
→ 2 | 4
CCCS(=O)(=O)NCc1nnnn1-c1ccc(C)c(C)c1
→ 3 | 0
CC1CCCN(Cc2nc3c(c(=O)n(C)c(=O)n3C)n2CCCO)C1 (stereo not drawn)
→ 0 | 25
Cc1cc(NC(=O)C(C)Oc2ccccc2)n(-c2ncnc3c2cnn3-c2ccccc2)n1 (stereo not drawn)
→ 10 | 7
COc1cccc(Cc2nc3c(c(N4CCOCC4)n2)CN(C(=O)Nc2cccc(Cl)c2Cl)CC3)c1
→ 12 | 11
O=C(NCc1ccccn1)c1coc(CN(Cc2ccc(F)cc2)Cc2ccc(Cl)c(Cl)c2)n1
→ 32 | 32
CCn1cc(C2=NOC(C(=O)Nc3cc(C)on3)C2)c(C)n1 (stereo not drawn)
→ 20 | 19
O=C1C2C3C=CC(C4CC34)C2C(=O)N1c1ccc2c(c1)OCO2 (stereo not drawn)
→ 4 | -1
O=c1oc2c3c(ccc2cc1-c1ccc(Cl)cc1)OCN(CCN1CCOCC1)C3
→ 14 | 4
CNC(=O)C(CC(C)C)NC(=O)C/C=C/c1ccc(C)cc1 (stereo not drawn)
→ -5 | -4
